# Bioassay records as filed in PubChem.
# StopGo reporter = FMDV 2A StopGo reporter, luciferase signal | Potency, µM (titrated, usually from 57.9 µM), for inactives: at the top dose signal change, negative = less light | human cells with a luciferase reporter of 2A StopGo recoding; control for the full effect not named in the record | 410,000 tested, 1.2% active; active = well fitted falling curve with a large enough effect; inconclusive = small, poorly fitted or top-dose-only effect; inactive = no such curve, though single readings can be large or run the other way; tested in HEK293T cells; further: on the % scale 0 is the no-effect control and ±100 the full control effect; nearly all actives have a fitted effect of over 45% in size; luciferase light after 4 h
# RE007 growth inh = less growth of the S. pombe RE007 Vpr strain | AID 651644 | Potency, µM (doses to about 92.2 µM), for the others: at the top dose activity change, negative = less growth | 360,000 tested, 0.21% active | S. pombe RE007 Vpr strain, BacTiter-Glo ATP luminescence, 24 h; control for the full effect not named in the record; active = well fitted falling curve with a large enough effect; inconclusive = small, poorly fitted or top-dose-only effect; inactive = no such curve, though single readings can be large or run the other way;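 further: on the % scale 0 is the no-effect control and ±100 the full control effect; nearly all actives have a fitted effect of over 50% in size; the assay follows cell death caused by Vpr and the record does not say whether a fall means rescue or toxicity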
#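 Fission yeast strain RE007, carrying one chromosomally integrated HIV-1 vpr copy, was seeded at OD 0.01 in PMG+AL medium with 23 nL pinned compound. After 24 h at 30 °C and 99% humidity, viability was read by BacTiter-Glo luminescence.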
# SARS PLpro yeast = SARS-CoV PLP inhibition in yeast; S. cerevisiae expressing SARS-CoV PLpro, growth rescue; control for the full effect not named in the record; 330,000 tested, 0.19% active; Potency, µM (series often up to 32.9 µM), for inactives: top-dose activity, positive = growth rescue; further: 0% is about no effect; nearly all actives have a fitted effect of over 55% in size; growth read by luminescence after 48 h
# Lassa entry inh = inhibitors of Lassa virus binding or cell entry | 300,000 tested, 1.2% active | Lassa virus pseudotype entry inhibition, cell reporter; control for the full effect not named in the record | AID 540256 | Potency, µM (top dose mostly 37.9 µM), for inactives: top-dose activity change, negative = inhibition, most hits filed as inhibitors; active means well fitted inhibition curve with a large enough effect; inconclusive means small, poorly fitted or top-dose-only effect, or effect the other way; inactive means flat fitted curve, though single readings scatter; tested in HEK293 cells; further: on the % scale 0 is the no-effect control and ±100 the full control effect; nearly all actives have a fitted effect of over 50% in size; luciferase read-out
# Cruzain noTriton = cruzain (T. cruzi) inhibition without detergent; 200,000 tested, 2.3% active; AID 1476; Potency, µM, without a hit: max response, negative = inhibition, hits mostly inhibitors; P25779; purified cruzain, Z-FR-AMC fluorescence, no detergent; active means well fitted curve in the direction sought with a large enough effect; inconclusive means small, poorly fitted or top-dose-only effect, or another doubt; inactive means no such curve, though single readings can be large; an effect the other way counts as inactive or inconclusive;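 further: plate controls were enzyme without inhibitor for no effect and buffer without enzyme for full effect; nearly all actives have a fitted effect of over 40% in size; top concentration of the series not given in the record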
# Target sequence (P25779 123-467 limits assumed): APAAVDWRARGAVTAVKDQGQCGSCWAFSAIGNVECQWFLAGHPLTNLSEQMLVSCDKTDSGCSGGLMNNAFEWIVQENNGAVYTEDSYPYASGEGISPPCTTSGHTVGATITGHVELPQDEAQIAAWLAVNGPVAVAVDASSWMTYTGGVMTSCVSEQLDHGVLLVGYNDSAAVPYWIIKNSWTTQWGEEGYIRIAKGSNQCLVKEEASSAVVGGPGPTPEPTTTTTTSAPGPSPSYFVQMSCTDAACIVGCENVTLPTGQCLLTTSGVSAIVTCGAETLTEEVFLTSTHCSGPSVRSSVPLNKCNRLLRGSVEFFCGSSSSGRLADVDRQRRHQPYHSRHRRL
#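 Detergent-free condition (0.00005% Triton X-100) in acetate buffer pH 5.5 with DTT. 1.5 nM enzyme and compound were pre-mixed 15 min, then 2 uM Z-FR-AMC substrate added; reaction progress from fluorescence change between first and third reads (60 s).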
# Cruzain Triton = inhibitors of Trypanosoma cruzi cruzain with detergent. P25779. purified cruzain, Z-FR-AMC fluorescence, 0.01% Triton. Potency, µM, for the others: max response, negative = inhibition, hits mostly inhibitors. 200,000 tested, 0.43% active. AID 1478; active means well fitted curve in the direction sought with a large enough effect; inconclusive means small, poorly fitted or top-dose-only effect, or another doubt; inactive means no such curve, though single readings can be large; an effect the other way counts as inactive or inconclusive;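 further: plate controls were neutral wells for no effect and buffer without enzyme for full effect; nearly all actives have a fitted effect of over 40% in size; top concentration of the series not given in the record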
#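 Detergent-containing run (0.01% Triton X-100) in acetate buffer pH 5.5 with 5 mM DTT: enzyme at 1.5 nM final, 15 min compound preincubation at room temperature, then 2 uM Z-FR-AMC substrate. Activity taken as 60 s fluorescence increase at 360/450 nm.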
# Marburg entry inh = inhibitors of Marburg virus binding or cell entry | Marburg virus pseudotyped entry inhibition, cell reporter; control for the full effect not named in the record; about a third of the inactives were read at about 46 µM | Potency, µM (doses to about 37.8 µM), inactives show top-dose activity change, negative = inhibition, usual class: inhibitors | 300,000 tested, 1.8% active; active = well fitted inhibition curve with a large enough effect; inconclusive = small, poorly fitted or top-dose-only effect, or effect the other way; inactive = flat fitted curve, though single readings scatter; tested in HEK293 cells; about a fifth of its hits are not listed in these tables; further: on the % scale 0 is the no-effect control and ±100 the full control effect; luciferase read-out
# NS1 inh = blocks influenza NS1 protein function | S. cerevisiae slowed by influenza A NS1, growth recovery by OD600 | Potency, µM (titrated, usually from 46.1 µM), without a hit: top-dose activity, positive = more growth | 270,000 tested, 0.4% active; further: actives are rising curves; nearly all actives have a fitted effect of over 50% in size
#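 Compounds were scored for reversing the slow growth caused by influenza A NS1 in S. cerevisiae, measured by optical density at 600 nm. Assay medium contained 2% galactose at pH 6.0; NS1-free yeast of the same strain were the positive control.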
# Active calls of the source: *; ? = inconclusive; . = not tested or not shown; & = joins results of further samples; [ ] = another dose, or the depositor's remark. Unless noted, the call rests on the fitted dose curve; in most records, active means well fitted rising curve with a large enough effect; inconclusive means small, poorly fitted or top-dose-only effect; inactive means no such curve, though single readings can be large or run the other way. Potency means the concentration at half of the fitted maximal effect.
# Under each structure: StopGo reporter, RE007 growth inh, SARS PLpro yeast, Lassa entry inh, Cruzain noTriton, Cruzain Triton, Marburg entry inh, NS1 inh
> COc1ccc(CNC(=O)C[C@H]2C[C@H](C(=O)N3CCOCC3)[C@@]3(C)c4[nH]c5cc(CCC(=O)N(C)C)ccc5c4CCN3C2=O)cc1OC
    1%, -7%, -16%, ., ., ., -1%, .
> COc1ccc2c(c1)C(NS(=O)(=O)OCC(Cl)(Cl)Cl)CCC2 (stereo not given)
    -15%, -7%, -11%, ., ., ., ., -57%
> O=C(NNC(=O)c1ccccc1Br)c1cccs1
    52%[activator], -4%, 16%, 11%[46.1 µM], ., ., ?, -5%
> CCOC(=O)N1CCN(C(=O)C2CCCN(S(=O)(=O)c3ccc(F)cc3)C2)CC1 (stereo not given)
    2%, -7%, 1%, -5%[46.1 µM], ., ., -10%, -4%
> COc1ccc(Cc2nnc(NN)[nH]c2=O)cc1OC
    2%, 24%, -1%, 6%, ., ., 22%, -1%
> Cc1ccccc1C(=O)OCCN1CCOCC1
    20%, -17%, 3%, 13%, 11%, -1.9%, ?, 12%
> C/C(N)=C(/C#N)C(=O)COC(=O)c1ccc(O)cc1
    16%, 17%, 14%, ?, 5%, -1.4%, ?, 10%
> COc1c(C)cc(C(=O)C2CCCN(C(=O)c3cc(C)n(C)n3)C2)cc1C (stereo not given)
    -22%, -4%, -1%, ., ., ., ., -8%
> Cc1ccc(Cn2c(=O)c3cccnc3n(Cc3ccc(C)cc3)c2=O)cc1
    2%, ., ., ., -2%, -0.9%, 3%[46.1 µM], .
> COc1ccc(CNC(=O)CCN2C(=O)c3ccccc3C2=O)cc1
    0%, -8%, 1%, ., ., ., ., 0%
> O=S(=O)(Nc1ccc(S(=O)(=O)N2CCCCC2)cc1)c1ccc(Br)s1
    28%, 6%, -17%, -2%, -5%, -14%, -4%&-11%, 8%
> O=S(=O)(NCC1CCCO1)c1ccc(S(=O)(=O)N2CCCC2)cc1 (stereo not given)
    ., -9%, 1%, -19%, 5%, 2.7%, 7%, 5%
> Fc1ccc2c(c1)nnn2C1CCN(Cc2nnnn2CCc2ccccc2)CC1
    -12%, 2%, 1%, 20%, 8%, 2.9%, -9%, -2%
> O=C(c1ccc(CS(=O)(=O)c2ccc(Br)cc2)o1)N1CCN(c2ccccn2)CC1
    ?, -6%, 1%, ., 0%, 5.9%, ., -7%
> COc1ccc(-c2csc(NC(=O)c3ccc(N4C(=O)CCC4=O)cc3)n2)cc1OC
    -7%, -5%, 0%, 0%, ., ., 3%[46.1 µM], 1%
> CN(Cc1ccccc1)C1=CC(=[N+]2CCCCC2)CC(C)(C)C1
    ?, 3%, -4%, ., ., ., ., ?
> COc1ccc(C)cc1NS(=O)(=O)c1ccc2[nH]c(=O)c(=O)[nH]c2c1
    -13%, ., ., ?, -15%, -3.8%, ?, .
> O=S(=O)(NC1CCCCC1)c1cccc(-c2nnc(-c3ccccc3)o2)c1
    7%, 0%, 6%, ?, 3%, -8.6%, ?, 0%
> Cc1c(Cl)cccc1NS(=O)(=O)c1ccccc1
    16%, 2%, ., 21%, ., ., 3%, .
> Cc1nnc(Nc2ccc(Cl)cc2)n(N)c1=O
    11%, 0%, -5%, 25%, 9%, 5.8%, 11%, 5%
> CCOc1ccc(NC(=O)Cn2cc(C(=O)c3ccc(C)c(C)c3)c(=O)c3cc(F)ccc32)cc1
    13%, ., ., -2%[46.1 µM], -9%, -1.5%, -28%[46.1 µM], .
> CCCCNS(=O)(=O)c1ccc(OCC(=O)N2CCN(Cc3ccc4c(c3)OCO4)CC2)cc1
    -21%, 6%, 4%, ., ., ., ., -17%
> CC1(NC(=S)Nc2ccccc2)CCS(=O)(=O)C1 (stereo not given)
    15%, 15%, 1%, 30%, ., ., -6%, 2%
> CCSc1nc2ccccc2n1CC(=O)OC
    6%, 8%, 1%, -3%, -4%, 3.8%, 13%, -1%
> COC(=O)CN1C(=O)C2(C(C#N)=C(N)Oc3n[nH]c(-c4cccs4)c32)c2ccccc21 (stereo not given)
    0%, -4%, ., -3%, -6%, 1.2%, 1%[46.1 µM], -1%
> Cc1cccc(C2NC(=O)c3ccccc3O2)c1 (stereo not given)
    9%, -12%, -6%, 1%, ., ., 9%, -11%
> O=C(Nc1ccccc1)Nc1cccc(Cl)c1Cl
    26%, 12%, -62%, ?, 0%, -8.5%, ?, -31%
> Cc1c(Cl)cccc1-n1ncc(C(=O)N2CCC(C)CC2)c1C1CCN(C(=O)OC(C)(C)C)CC1
    -29%, ., ., -2%[46.1 µM], ?, -0.6%, ., .
> Cc1c(NC(=O)c2cc3nc(-c4ccc(Cl)cc4)cc(C(F)(F)F)n3n2)c(=O)n(-c2ccccc2)n1C
    -14%, 12%, 15%, -3%, ?, -4.9%, -12%, 1%
> O=S(=O)(c1ccc(Nc2ccc3c(c2)OCO3)nc1)N1CCOCC1
    13%, -12%, 6%, ?, -29%, -0.3%, 6%, 5%
> c1ccc(OCCCn2nnc(-c3ccc(N4CCOCC4)cc3)n2)cc1
    ., 9%, -3%, ?, -25%, 6.9%, 6%, 0%
> COc1ccc(Nc2ccc(Cl)cc2)c(C(=O)O)c1
    5%, ?, -52%, ?, -12%, -3.7%, ?, -67%
> Cc1cc(N2CCN(Cc3ccccc3)CC2)n2nc(C)c(-c3ccccc3)c2n1
    -9%, 13%, 7%, -6%, 12%, -6.5%, -2%, 3%
> Cc1cc(C(=O)NNC(=O)Nc2ccccc2)no1
    3%, 9%, -9%, ?, ., ., -5%, 0%
> COC(=O)c1ccc(NC(=O)CSc2nncc3ccc(OC)c(OC)c23)cc1
    -13%, 1%, 10%, 6%, -1%, -1.0%, 7%, -6%
> O=C(N/N=C/c1ccccn1)c1cc(-c2ccc(Br)cc2)nc2ccccc12
    -12%, 2%, -1%, ?, ., ., ?, -56%
> Cc1ccc(C2=NC3(CCCCCC3)NC2=S)cc1
    21%, -1%, -8%, 11%, -5%, -0.9%, 1%, -1%
> COc1cc(C(=O)NCCOc2cccc(C)c2)c(Br)c(OC)c1OC
    -10%, 5%, 0%, 4%, -2%, -3.6%, -11%, -9%
> CCOc1ccc(NC(=O)Nc2nnc(CC)s2)cc1
    1%, -12%, 7%, 13%, -7%, -5.3%, ?, -13%
> COc1ccccc1CC(=O)Nc1cccc(F)c1
    11%, -1%, -1%, 8%, ., ., 12%[46.1 µM], .

# Some of the entries so far, as labelled records:
COc1ccccc1CC(=O)Nc1cccc(F)c1
  StopGo reporter: 11%	RE007 growth inh: -1%	SARS PLpro yeast: -1%	Lassa entry inh: 8%	Cruzain noTriton: .	Cruzain Triton: .	Marburg entry inh: 12%[46.1 µM]	NS1 inh: .

CC1(NC(=S)Nc2ccccc2)CCS(=O)(=O)C1 (stereo not given)
  StopGo reporter: 15%	RE007 growth inh: 15%	SARS PLpro yeast: 1%	Lassa entry inh: 30%	Cruzain noTriton: .	Cruzain Triton: .	Marburg entry inh: -6%	NS1 inh: 2%

Cc1cc(N2CCN(Cc3ccccc3)CC2)n2nc(C)c(-c3ccccc3)c2n1
  StopGo reporter: -9%	RE007 growth inh: 13%	SARS PLpro yeast: 7%	Lassa entry inh: -6%	Cruzain noTriton: 12%	Cruzain Triton: -6.5%	Marburg entry inh: -2%	NS1 inh: 3%

# Further results follow:
molecule | StopGo reporter | RE007 growth inh | SARS PLpro yeast | Lassa entry inh | Cruzain noTriton | Cruzain Triton | Marburg entry inh | NS1 inh
O=C(CCN1C(=O)/C(=C/c2cccs2)SC1=S)N1CCCCC1 | 25% | -8% | 0% | ? | . | . | ? | 4%
O=C(Nc1ccc(NC(=O)c2ccccc2Cl)nc1)c1ccncc1 | -22% | 12% | 1% | . | . | . | . | -2%
O=C(CSc1cccc(C(F)(F)F)c1)NC(=O)NCc1ccco1 | . | 6% | -10% | ? | 1% | -10% | -11% | 0%
O=C1/C(=C\c2ccc([N+](=O)[O-])cc2)N2CCC1CC2 | -7% | 0% | 13% | 1% | 12% | -3.1% | ? | -18%
COCCOc1nc2ccccc2nc1C | 22% | -15% | -19% | -4% | 7% | -0.7% | -14% | 5%
CCN(c1ccccc1)S(=O)(=O)c1ccc(C(=O)Nc2ccncc2)cc1 | 25µM* | ? | -2% | ? | . | . | ? | .
Cc1cccc[n+]1CC(=O)N1c2ccccc2Sc2ccccc21 | -14% | -26% | ? | ? | . | . | 7%[46.1 µM] | -4%
O=C(O)c1ccc(CNC(=O)c2ccc(Br)o2)cc1 | 7% | -1% | -3% | 3% | 4% | 2.6% | -4% | 1%
CCN(CC)S(=O)(=O)c1ccc(N2CCCC2)c(NC(=O)CC(C)(C)C)c1 | -15% | 4% | -1% | -6% | . | . | -12%[46.1 µM] | 5%
Cc1cc(C(=O)CN2C(=O)C(=O)N(C3CCCC3)C2=O)c(C)n1CCc1ccccc1 | ? | 2% | 14% | -2% | . | . | -9% | .
COc1ccc(C(=O)Cn2c(Br)nc3c2c(=O)n(C)c(=O)n3C)cc1 | -12% | 3% | 3% | -20% | -11% | -21% | -15% | -8%
COC(=O)c1cc(S(=O)(=O)NCC2CCN(CCc3ccc(OC)cc3)CC2)c[nH]1 | -18% | -15% | 0% | . | . | . | . | -7%
CCOc1ccccc1C(=O)Nc1ccsc1C(=O)OC | ? | -13% | -7% | ? | -7% | -8.5% | ? | -20%
CC(=O)N/C(=C\c1ccccc1)C(=O)OCc1ccc(C)cc1 | -13% | 14% | -9% | . | . | . | . | -5%
COc1ccc(C(=O)Nc2c(C(=O)c3ccc(F)cc3)oc3ccccc23)cc1 | -20% | . | . | 7%[46.1 µM] | 10% | 0.6% | ? | .
